Sfp inh – qHTS Assay for Inhibitors of Bacillus subtilis Sfp phosphopantetheinyl transferase (PPTase); 4'-phosphopantetheinyl transferase ffp (Bacillus subtilis), Q9F4F7; Biochemical Sfp PPTase activity, qHTS; AID 1490, 2009; Potency, µM, without a hit: max response, negative = inhibition, most hits filed as inhibitors; actives 3.5% (n = 310,000); active = well fitted inhibition curve with a large enough effect; inconclusive = small, poorly fitted or top-dose-only effect, or another doubt; inactive = no such curve, though single readings can be large or run the other way;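 note: the enzyme is Sfp with the accession as filed and its product quenches rhodamine fluorescence; potency is the fitted concentration of half-maximal effect; 0% = enzyme reaction without inhibitor and -100% = no enzyme wells; top concentration of the series not given in the record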
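Compounds were incubated with enzyme (final 15 nM) for 15 min at room temperature before substrate addition started the reaction. Fluorescence at 525 nm excitation, 598 nm emission was recorded immediately and after 30 minutes.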
gsp antag – qHTS for Antagonists of gsp, the Etiologic Mutation Responsible for Fibrous Dysplasia/McCune-Albright Syndrome: qHTS | gsp-mutant cells, cAMP HTRF, 30 min; control for the full effect not named in the record | Potency, µM (top dose mostly 76.9 µM), inactives show at the highest dose activity change, negative = inhibition, hits mostly inhibitors | actives 0.4% (n = 340,000) | AID 624288, 2012; active = falling curve of any shape with a large fitted effect; inconclusive = falling curve, mostly with a smaller effect; inactive = flat or rising curve; cell line not stated here;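 note: intracellular cAMP measured with PDE inhibitor Ro 20-1724 present during compound exposure; potency is the fitted concentration of half-maximal effect; % is set by controls: 0 for no effect and ±100 for the full control effect; nearly all actives have a fitted effect of over 65% in size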
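HTRF cAMP measurement after 30 min RT detection following 30 min, 37C compound treatment alongside […] (added as 300 uM solution) in G418-selected cells seeded at 2000/well and grown 16–24 h.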
Menin-MLL FL inh – qHTS Assay for Inhibitors Targeting the Menin-MLL Interaction in MLL Related Leukemias: Competition With Fluorescein Labeled MLL-derived Peptide; Fluorescence polarization, fluorescein-MLL peptide displacement from menin; AID 1766, 2009; FP activity change, % at 61.4 µM; 290,000 tested, under 10 active; inconclusive = falling polarisation curve, or a change in total fluorescence; inactive = total fluorescence flat and polarisation flat or rising; no compound was filed as active; the % refers to the polarisation; negative = inhibition;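 note: % of control where 0% means no effect; inhibitors lower the polarisation; unlabelled MLL peptide was the positive control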
ClpP mod – qHTS Assay for Activators of ClpP; ATP-dependent Clp protease proteolytic subunit (Bacillus subtilis (strain 168)), P80244; purified B. subtilis ClpP, FRET peptide cleavage, 20 min; Potency, µM (doses to about 57.5 µM), inactives show at the highest dose activity change, negative = active; actives 1.9% (n = 340,000); active = well fitted falling curve with a large enough effect; inconclusive = small, poorly fitted or top-dose-only effect; inactive = no such curve, though single readings can be large or run the other way; note: potency is the fitted concentration of half-maximal effect; the source files actives as falling curves though it sought activators and does not explain the sign; nearly all actives have a fitted effect of over 65% in size; many hits overshoot -100%
Target sequence (P80244 whole entry, looked up): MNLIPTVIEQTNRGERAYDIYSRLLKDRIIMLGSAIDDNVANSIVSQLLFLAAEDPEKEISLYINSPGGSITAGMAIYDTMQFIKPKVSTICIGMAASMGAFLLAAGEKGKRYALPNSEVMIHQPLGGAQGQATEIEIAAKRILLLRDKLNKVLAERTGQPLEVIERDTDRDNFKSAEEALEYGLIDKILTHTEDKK
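Purified B. subtilis ClpP, 10 microg/mL final in Tris/HCl pH8 with KCl, BSA, glycerol and Tween-20, cleaved an Abz/nitrotyrosine-quenched decapeptide. Fluorescence (ex 320, em 430) was read at 0 and 20 min at room temperature. Delta was normalized to 5.8 microM ADEP and DMSO/no-enzyme controls.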
CtBP-E1A inh – qHTS Assay for Inhibitors of the CtBP/E1A Interaction; activity change, % (no concentration beside the values); AlphaScreen GST-E1A/His-CtBP binding, 1536-well; hits give low values; control for the full effect not named in the record; actives 0.49% (n = 340,000); in the data active means activity change below about -65%; inconclusive means about -30% to -65%; inactive means above about -30%; note: % is set by controls: 0 for no effect and ±100 for the full control effect; compound concentration not given in the record
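Protein mix (5X: 125 nM each GST-E1A, His-CtBP) was incubated with pinned compound 2 h at 37 deg C in dark, in 50 mM Tris pH 8.0 buffer with 300 mM NaCl. Glutathione donor and nickel acceptor beads followed; AlphaScreen signal read after 1 h.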
gsp ag – qHTS for Agonist of gsp, the Etiologic Mutation Responsible for Fibrous Dysplasia/McCune-Albright Syndrome: qHTS; Potency, µM (highest dose often 76.9 µM), for inactives: at the highest dose activation (cAMP increase), usual class: activators; gsp mutant cells, cAMP HTRF, 30 min; control for the full effect not named in the record; AID 624287, 2012; actives 0.13% (n = 340,000); active = well fitted activation curve with a large enough effect; inconclusive = small, poorly fitted or top-dose-only effect, or another doubt; inactive = no such curve, though single readings can be large or run the other way; cell line not stated here;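 note: phosphodiesterase inhibitor Ro 20-1724 added with compounds to block cAMP breakdown; potency is the fitted concentration of half-maximal effect; nearly all actives have a fitted effect of over 60% in size; about a fifth of the inactives were tested at one dose only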
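Cells stably selected in G418 were plated at 2000/well, grown 16-24 hr, then given compounds in DMSO with the PDE inhibitor […] (300 uM solution added) for 30 min at 37C; cAMP was read by HTRF.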
TRPV1 potentiator – HTS Assay for Compounds that Act as Potentiators of the Vanilloid Receptor 1; Transient receptor potential cation channel subfamily V member 1 (Homo sapiens), Q8NER1; TRPV1-expressing cells, Fluo-8 calcium influx, capsaicin EC20 potentiation; host cell line not named in the record; control for the full effect not named in the record; potentiation, % at 8.33 µM; actives 0.02% (n = 320,000); active means potentiation above 80%; inconclusive means 30% to 80%; inactive means below 30%; note: 0% is about no effect
Target sequence (Q8NER1 whole entry, looked up): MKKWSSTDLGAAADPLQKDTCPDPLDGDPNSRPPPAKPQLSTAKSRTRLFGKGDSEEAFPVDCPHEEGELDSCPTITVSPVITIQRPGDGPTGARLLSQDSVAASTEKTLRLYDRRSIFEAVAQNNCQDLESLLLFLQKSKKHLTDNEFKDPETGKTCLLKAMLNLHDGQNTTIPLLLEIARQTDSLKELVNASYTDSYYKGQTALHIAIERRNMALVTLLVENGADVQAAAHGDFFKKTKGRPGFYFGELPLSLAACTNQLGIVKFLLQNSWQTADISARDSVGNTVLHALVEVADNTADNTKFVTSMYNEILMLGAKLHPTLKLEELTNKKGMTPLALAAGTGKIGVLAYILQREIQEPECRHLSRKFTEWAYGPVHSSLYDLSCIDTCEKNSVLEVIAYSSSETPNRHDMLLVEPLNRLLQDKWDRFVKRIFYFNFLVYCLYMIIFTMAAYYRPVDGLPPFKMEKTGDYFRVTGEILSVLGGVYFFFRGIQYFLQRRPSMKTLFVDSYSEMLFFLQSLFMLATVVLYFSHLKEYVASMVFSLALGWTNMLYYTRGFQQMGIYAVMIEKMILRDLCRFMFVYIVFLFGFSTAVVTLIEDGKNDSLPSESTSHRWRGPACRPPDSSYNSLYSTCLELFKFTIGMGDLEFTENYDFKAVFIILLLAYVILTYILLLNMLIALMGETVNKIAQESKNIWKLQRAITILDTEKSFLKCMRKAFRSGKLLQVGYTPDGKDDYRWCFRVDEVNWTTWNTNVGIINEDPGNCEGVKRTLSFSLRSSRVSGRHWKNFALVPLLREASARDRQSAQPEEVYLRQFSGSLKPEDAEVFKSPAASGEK
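Cells expressing TRPV1 were dye-loaded with Fluo-8 and read kinetically: 10 s baseline, 3 min after compound (agonist portion), then 2 min after EC20 capsaicin (allosteric enhancer portion). Calcium-bound dye fluorescence at 480/520 nm.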
The depositor's hits bear a star; ? = inconclusive; nt = no result given; & = joins results of further samples; [ ] = remark or other dose. Hits appear at their usual frequency; any-hit rate near 5.3%.

Results follow in this order: Sfp inh | gsp antag | Menin-MLL FL inh | ClpP mod | CtBP-E1A inh | gsp ag | TRPV1 potentiator
O=C(CSc1nnc(NC(=O)CN2CCOCC2)s1)Nc1ccccc1
 : 0.1% | -2.7%[15.4 µM] | -0.6 | -2.7% | -3.4 | 18.4% | -4.9
CCOc1ccc(/C=N/n2cnnc2)cc1
 : 16.2% | 4.6% | 6.0 | -0.6% | -0.4 | -41.5%[inhibitor] | 1.2
CC(C)N1C(=O)CC(Nc2cccc3cccc(N)c23)C1=O (stereo not given)
 : -11.1% | ? | -11.7 | nt | -1.5 | -7.4%[15.4 µM] | 22.2
CCOC(=O)COc1ccc(/C=C2\NC(=S)N(CC)C2=O)cc1
 : 2.6% | -10.2% | 2.5 | -4.6% | -16.6 | 0.9%[15.4 µM] | 7.0
CSc1nc(C2CC2)cc(-c2cccs2)c1C#N
 : -24.5% | 37.7%[activator] | 1.9 | ? | 9.6 | -32.3%[inhibitor] | 20.9
CC(=O)/C(=C/N(C)C)Sc1ccc(C)cc1
 : 3.5% | -7.6% | 0.4 | -3.3% | -9.2 | 0.5% | -3.5
CC(=O)Nc1ccc(S(=O)(=O)Nc2nc3ccccc3nc2N2CCCCCC2)cc1
 : 0.4% | ? | 0.6 | -9.2% | -12.1 | -24.7% | -4.0
O=C(NCCc1ccccc1)c1ccc(CS(=O)(=O)c2ccc(Br)cc2)o1
 : 1.7% | -4.2% | nt | -3.1%&0.3% | nt | -30.8%[inhibitor] | -20.0
CCOC(=O)c1cnn(-c2ncnc3sc(CC)cc23)c1N
 : -2.9% | 0.0% | 0.7 | 0.6% | 15.0 | -54.6% | nt
COc1cccc(N2CCN(CC(=O)Nc3ccccc3C(=O)NCCc3ccccc3)CC2)c1
 : nt | -13.0% | nt | -4.9% | -17.9 | ? | -8.2
CCN(Cc1ccc2c(c1)OCCO2)C(=O)CSc1nc(C)nc2sc(C)c(C)c12
 : nt | 50.1µM* | nt | -7.1% | -10.5 | -74.7%[inhibitor] | -4.4
COc1cc(/C=C2\C(=N)N3N=C(S(C)(=O)=O)SC3=NC2=O)ccc1OC(=O)c1cccs1
 : -19.5% | 2.2% | ? | 4.6% | nt | 14.1% | 5.1
CC(=O)Nc1c(N)c2ccccc2oc1=O
 : 12.6% | 9.9% | -2.2 | nt | nt | 7.4%[15.4 µM] | 4.2
CCCc1nnc(SCC(=O)N2CCCCC2C)n1CCOC (stereo not given)
 : 15.4% | 0.8% | -5.1 | 0.6% | 0.0 | -1.3% | 19.4
Cc1ccc2oc(=O)c3cnn(CC(=O)N(CCC(C)C)Cc4ccco4)c3c2c1
 : 1.5% | 1.7% | -0.2 | 0.6% | 7.8 | ? | -9.6
CC1CCC2(CC1)NC(=O)N(CC(=O)Nc1ccc3[nH]c(=O)[nH]c3c1)C2=O (stereo not given)
 : nt | 11.0% | nt | nt | 1.7 | -21.3%[15.4 µM] | 10.1
O=C(NCc1cc([N+](=O)[O-])ccc1O)c1cccnc1Sc1ccccc1
 : 0.7% | -25.2% | nt | 0.5% | -0.6 | 3.4% | -4.6
O=C(Cc1csc(N2CCOCC2)n1)N/N=C/c1cccc(O)c1
 : -0.7% | -8.9% | 3.7 | -1.3% | 0.0 | 0.2% | 14.5
O=C(Cn1cc(C(F)(F)F)ccc1=O)N/N=C/c1ccccc1O
 : 14.9% | 8.6% | -0.8 | -4.7% | -91.2* | -1.3% | 2.2
Brc1cccc(OCCN2CCOCC2)c1
 : -17.1% | 6.2% | -2.3 | -3.7% | nt | -9.7% | 4.9
Cc1ccc(C(=O)Nc2cc(C(F)(F)F)ccc2-n2cncn2)o1
 : nt | 1.0% | nt | -4.8% | nt | 17.9% | 0.9
COC(=O)c1[nH]c2cccc(OC)c2c1NC(=O)CN1CCN(c2cccc(OC)c2)C(C)C1 (stereo not given)
 : ? | -21.2% | 2.0 | ? | -12.1 | -1.1% | -13.3
COc1cccc(CNC(=O)CCS(=O)(=O)c2ccc3c(c2)NC(=O)C(C)S3)c1 (stereo not given)
 : 1.0% | 1.4% | -2.4 | -1.7% | -9.5 | ? | 3.6
Cc1nc(Cl)c(Cl)n1CCOc1ccccc1
 : -17.8% | 8.9% | -2.9 | nt | -7.5 | 3.4%[15.4 µM] | 13.0
C#CCNC(=O)C1=C[C@@H](c2coc3ccccc3c2=O)C[C@@H](OCCCCO)O1
 : 10.2% | 8.0% | 0.4 | -2.0% | 3.3 | -1.0% | -27.0
NC(=O)c1cnn2c1NC(c1ccc(F)cc1)CC2C(F)(F)F (stereo not given)
 : -2.5% | 8.4% | -6.3 | -1.9% | 3.1 | -12.1% | -22.7
CCOC(=O)C1CCN(C2=C(NS(=O)(=O)c3ccc(Cl)cc3)C(=O)c3ccccc3C2=O)CC1
 : 6.3% | ? | 1.8 | nt | -81.5* | 17.9% | -0.6
CCN(CC)Cc1nc2sc(C)c(C)c2c(=O)[nH]1
 : -14.8% | 27.0% | 19.9 | -1.1% | 9.1 | -15.0% | 0.9
COc1ccc(/C=C/C(=O)OCn2c(SC)nnc(C)c2=O)cc1OC
 : 20.3% | -1.5% | -5.8 | -9.0% | -7.0 | -29.7% | 8.1
Fc1ccccc1-c1nnc2ccc3ccccc3n12
 : 3.7% | 16.8% | -1.4 | nt | -4.9 | 5.0% | 13.4

One compound at a time, as listed above. Screens in order: Sfp inh, gsp antag, Menin-MLL FL inh, ClpP mod, CtBP-E1A inh, gsp ag, TRPV1 potentiator
O=C(CSc1nnc(NC(=O)CN2CCOCC2)s1)Nc1ccccc1 in the list: 0.1%, -2.7%[15.4 µM], -0.6, -2.7%, -3.4, 18.4%, -4.9
CCOC(=O)c1cnn(-c2ncnc3sc(CC)cc23)c1N in the list: -2.9%, 0.0%, 0.7, 0.6%, 15.0, -54.6%, nt
COc1cccc(N2CCN(CC(=O)Nc3ccccc3C(=O)NCCc3ccccc3)CC2)c1 in the list: nt, -13.0%, nt, -4.9%, -17.9, ?, -8.2

Going on with the list:
molecule	Sfp inh	gsp antag	Menin-MLL FL inh	ClpP mod	CtBP-E1A inh	gsp ag	TRPV1 potentiator
C/C(=N\Nc1ccc([N+](=O)[O-])cc1)c1ccc(N2CCOCC2)cc1	-15.4%	-24.1%	16.6	nt	-0.5	1.7%[15.4 µM]	7.4
CC(=O)Nc1c(-c2cc(=O)oc3cc(C)ccc23)oc2ccccc12	1.0%	-14.2%	6.1	-0.2%	4.0	3.3%	-12.3
CCOC(=O)C1CCCN(C(=O)c2ccc(OC)c([N+](=O)[O-])c2)C1 (stereo not given)	6.5%	12.6%	1.4	-2.7%	15.3	23.8%	3.2
CCn1cc(C(=O)OCC(=O)c2cc(C)n(-c3cccc(C(F)(F)F)c3)c2C)c(=O)c2ccc(C)nc21	-24.3%	-6.1%	9.5	0.7%	-28.5	-5.3%	-2.2
COCCN(C(=O)COC(=O)CSc1ccc(Cl)cc1)c1c(N)n(Cc2ccccc2)c(=O)[nH]c1=O	nt	10.9%	nt	-2.2%	-16.4	-5.7%	11.9
O=C(COC(=O)c1ccc(O)cc1O)NC1CCS(=O)(=O)C1 (stereo not given)	10.9%	5.4%	3.9	nt	0.5	3.4%[15.4 µM]	1.6
O=C(NCc1n[nH]c(=O)c2ccccc12)C1CC(=O)N(c2ccccc2)C1 (stereo not given)	nt	10.7%	nt	-1.9%	-0.8	0.6%[15.4 µM]	-6.1
CCOC(=O)c1c(C)[nH]c(C)c1S(=O)(=O)N(C)CC(=O)N1CCN(c2ccc(OC)cc2)CC1	-6.8%	8.1%	nt	-4.9%	nt	2.3%	-12.6
O=C(Cc1c[nH]c2ccccc12)N1CCN(S(=O)(=O)c2ccc(Cl)cc2)CC1	nt	-5.6%	nt	nt	-1.3	15.9%[15.4 µM]	-0.1
CC(=O)c1ccc(N2CCN(C(=O)C3CCN(S(=O)(=O)c4cccs4)CC3)CC2)cc1	9.7%	?	3.0	nt	-7.3	30.3%	4.2
CCN1C=C(Cc2ccccc2C)C2=C(C1)C(c1ccccc1C)C(C#N)=C(N)O2 (stereo not given)	-26.5%	-11.1%	?	-4.8%	-6.7	?	8.8
Cc1cccc(C2=NNC(=O)C(c3ccc(Cl)cc3)C2)c1 (stereo not given)	-13.4%	8.1%	-2.7	nt	-4.7	-22.3%[15.4 µM]	4.7
O=C(Nc1cc(=O)[nH]c(=O)[nH]1)c1cccc(Br)c1	21.3%	10.8%	1.7	nt	0.0	-3.8%[15.4 µM]	1.2
O=C(NCCCn1ccnc1)c1ccc(Cl)cc1[N+](=O)[O-]	-26.7%	14.2%	0.5	nt	8.1	0.8%[15.4 µM]	2.9
Cc1nnc(C)c2c(C)n(-c3cccc4cccnc34)c(C)c12	3.6%	nt	0.6	nt	nt	nt	0.8
COc1ccc(CC(=O)Nc2nnc(-c3cccc([N+](=O)[O-])c3)s2)cc1	2.9%	5.0%	2.4	-2.1%	3.4	-36.8%[inhibitor]	14.8
Nc1nc(SCC(=O)Nc2ccc(S(N)(=O)=O)cc2)n[nH]1	16.3%	0.7%	-4.1	1.6%	-1.0	-5.2%[15.4 µM]	-0.7
Cc1ccc(/C=C/C(=O)NCc2ccncc2)cc1	15.3%	4.4%	7.3	-1.7%	5.3	-37.3%[inhibitor]	-4.1
CCc1nnc(SCC(=O)Nc2ccccc2)n1CC1CCCO1 (stereo not given)	15.9%	11.8%	nt	-1.4%	14.4	-48.5%[inhibitor]	13.7

Source: PubChem (National Center for Advancing Translational Sciences (NCATS))
